Sa helicase inh = S. aureus DNA helicase inhibition; purified S. aureus helicase, fluorescence unwinding assay; about half of the hits fall short of the stated cut; AID 485395; inhibition, %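 (tested at about 80 µM)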; 120,000 compounds, 0.05% hits;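 active = both duplicates at 50% or more, or one of them with a favoured structure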;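 note: 0% = mean of negative control wells and 100% = mean of positive control wells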
MgrA-DNA mod = S. aureus MgrA-DNA binding modulation. AID 602314. inhibition, %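 (about 10 µg/mL by stock and volumes)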. 84,000 compounds, 0.13% hits. fluorescence polarization;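 active = above 50% in either of two replicates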;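 note: 0% = protein plus DNA without compound and 100% = DNA alone without protein; higher means less MgrA bound to DNA so lower polarization; one replicate is shown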
* hit, by the source's call; . = not tested or not shown.

Values run as follows: Sa helicase inh, MgrA-DNA mod
Cc1oc(C23CC4CC(CC(C4)C2)C3)cc1C(=O)N1CCOCC1
 : 6, -4.3
O=C(Nc1ccc(O)cc1)c1ccc2ccccc2c1
 : 2, .
Cc1ccc(NC(=O)CSc2c(C)cc(=O)n(N)c2C)cc1C
 : -11, .
COc1ccc(OC)c(-c2csc(=Nc3ccccc3)n2CCCn2ccnc2)c1
 : -9, .
O=C(O)c1cccc(CSc2ncccn2)c1
 : 13, .
CC(=O)Nc1ccc(S(=O)(=O)NCc2ccc(C(=O)NCc3ccccc3)cc2)cc1
 : 5, 1.6
COc1ccc(N(C(=O)c2ccco2)c2ccccc2)cc1
 : 5, -3.2
CC1=C(c2ccc(C)cc2)S(=O)(=O)N=C1N1CCCC1
 : 17, 0.8
O=C1CC2CC3CC(C2)CC1C3
 : -9, .
Cc1ccc(CN2CCN(C/C=C/c3ccccc3)CC2)cc1
 : ., -1.1
O=C(O)C1CCN(S(=O)(=O)c2ccc(-c3nn[nH]n3)cc2)CC1
 : -19, .
COc1ccc(C2(CNC(=O)c3ccccc3)CCOCC2)cc1
 : -2, .
CN(C)C(=O)Nc1ccc2c(c1)nnn2C
 : 2, -0.8
CC1CN(C(=S)NC(=O)C2CC2)CCN1C(=S)NC(=O)C1CC1 (stereo not drawn)
 : 0, .
O=C(CC(C(=O)Nc1ccc2c(c1)OCO2)C(=O)c1ccccc1)NC1CCS(=O)(=O)C1 (stereo not drawn)
 : 7, .
NCCN1C(=O)C2C3c4ccccc4C(c4ccccc43)C2C1=O (stereo not drawn)
 : 12, 1.8
CC(=O)NC(Cc1ccc2ccccc2c1)C(=O)O (stereo not drawn)
 : ., -0.5
CNCc1ccc(N2CCCC2)cc1
 : -11, .
O=[N+]([O-])c1ccc(Sc2ccc(Cl)cc2)nc1
 : ., -1.8
COC(=O)c1sccc1S(=O)(=O)Nc1ccc(-c2cn3c(n2)SCC3)cc1
 : ., 2.3
CCOc1cc(/C=C(\C#N)C(=O)OC(C)C)ccc1OCC(=O)N(C)C
 : -11, .
CN(Cc1ccc(Br)cc1)S(=O)(=O)c1cccc(C#N)c1
 : -7, .
Cc1ccc(Nc2c(-c3ccc(C)o3)nc3nc(C)cc(C)n23)cc1
 : 12, 0.7
CCOc1cc2c(cc1OCC)C1c3ccccc3OCC(=O)N1CC2 (stereo not drawn)
 : 1, -0.2
N#Cc1ccc(CSCCN2C(=O)c3ccccc3C2=O)cc1
 : 15, .
CSc1ccc(S(=O)(=O)NCCc2ccccc2)cc1
 : 5, -0.3
O=[N+]([O-])c1cccc(-c2nn[nH]n2)c1
 : ., 0.4
N#CC1(C#N)[C@@H]2c3ccccc3C=CN2[C@@H](C(N)=O)[C@@H]1c1ccc(F)cc1
 : 8, -1.6
CS(=O)(=O)C1=C(N)C(=O)N(c2ccccc2)C1c1ccccc1 (stereo not drawn)
 : 6, -1.4
Cc1ccc(C)n1-c1ccc(SCC(=O)O)cc1
 : 42*, .
COCCCn1c(SCc2cc(=O)oc3cc(O)c(O)cc23)nnc1-c1ccc(Cl)cc1
 : 26, .
CCCc1c(C(=O)Nc2ccc(N3CCOCC3)cc2)cnn1-c1ccccc1
 : ., 0.0
O=C(c1cc(S(=O)(=O)N2CCCCC2)ccc1N1CCCC1)N1CC=C(c2ccccc2)CC1
 : 5, .
c1ccc(-c2ncc3ccccn23)cc1
 : ., -1.9
COc1ccc2cc3cc(C(=O)Nc4ccc(Oc5ccccc5)cc4)oc3nc2c1
 : 13, 0.4
CC(C)(Cc1ccc(O)cc1)NC(=O)c1ccccc1
 : 14, -0.3
CC1=CC2=NS(=O)(=O)CCN2C=C1
 : -17, .
Cc1cc(COC(=O)/C(C#N)=C/c2ccc(N(C)C)cc2)no1
 : -31, .
CCn1cc(S(=O)(=O)c2ccc(OC)cc2)c(=O)c2ccccc21
 : 1, .
Cc1ccc(-n2ncc3c(=O)n(-c4ccc(C(C)C)cc4)c(-c4ccco4)nc32)cc1
 : -22, .
CC(C)NC(=O)C(F)(F)F
 : 3, -0.8
c1ccc(Nc2nc3c(s2)Cc2ccccc2-3)cc1
 : ., -4.4
CCC(CO)Nc1ncnc2c1cnn2-c1ccccc1 (stereo not drawn)
 : -19, .
Cc1ccc(CCCC(=O)NC2CCS(=O)(=O)C2)cc1 (stereo not drawn)
 : 1, -3.0
COc1cccc(C=Nc2ccccc2C(=O)Nc2ccc(F)cc2)c1O
 : ., -0.3
O=C(c1noc2c1COc1ccccc1-2)N(Cc1ccccc1)Cc1cccs1
 : -10, .
COC(=O)C(C)Nc1cccc(Br)c1 (stereo not drawn)
 : 2, 1.1
O=S(=O)(c1cccc(C(F)(F)F)c1)N1CCC(n2cccc2)CC1
 : ., 1.5
CS(=O)(=O)N(Cc1ccc(Cl)cc1)c1ccc(C(=O)N2CCCCCC2)cc1
 : 7, 4.5
Cc1c(C(=O)N2CCCc3ccccc32)sc2nc(-c3ccccc3)cn12
 : 1, 0.0

Brought forward from above: 4 compounds; new compounds follow.
Values run as follows: Sa helicase inh, MgrA-DNA mod
COC(=O)C(C)Nc1cccc(Br)c1 (stereo not drawn)
 : 2, 1.1
O=S(=O)(c1cccc(C(F)(F)F)c1)N1CCC(n2cccc2)CC1
 : ., 1.5
CS(=O)(=O)N(Cc1ccc(Cl)cc1)c1ccc(C(=O)N2CCCCCC2)cc1
 : 7, 4.5
Cc1c(C(=O)N2CCCc3ccccc32)sc2nc(-c3ccccc3)cn12
 : 1, 0.0
COc1ccc(-c2c(C#N)c(N)n3c(nc4ccccc43)c2C#N)cc1OC
 : ., 3.1
COc1ccc(-c2n[nH]c(=S)n2-c2ccc(Cl)cc2C)cc1
 : ., -1.6
O=C1Oc2ccccc2C(=O)/C1=C/N1CCc2ccccc21
 : 2, -3.2
CCOC(=O)CC(N)c1ccccc1Cl (stereo not drawn)
 : 0, -1.4
Clc1ccc(-c2nn[nH]n2)c(Cl)c1
 : ., 1.0
O=C(N/N=C/c1ccco1)c1csc2c1CCCC2
 : 15, .
Cn1ncc2c(NCc3cccnc3)ncnc21
 : -11, .
Cc1nn(C)c(C)c1Cc1c(F)cccc1Cl
 : ., 1.2
CCC(C)C(=O)N1CCCC(c2nc(-c3cccs3)no2)C1 (stereo not drawn)
 : -4, 2.0
Cc1cnn(-c2cc(Oc3ccccc3)ncn2)c1
 : 11, .
CCN(CC)CC(O)Cn1c(-c2ccc(OC)cc2)cc2ccccc21 (stereo not drawn)
 : -18, .
O=C(c1ccco1)N1CCN(CC(=O)N(C2CCCCC2)C2CCS(=O)(=O)C2)CC1 (stereo not drawn)
 : -11, .
O=C(/C=C/c1ccco1)OCc1cc(=O)n2c(n1)sc1ccccc12
 : 4, .
O=C(NCCN1CCN(Cc2ccccc2)CC1)c1cc(=O)[nH]c2ccc(S(=O)(=O)N3CCCC3)cc12
 : 4, .
Fc1nc(F)c(F)c(Oc2c(F)c(F)c3c(F)c(F)c(F)c(F)c3c2F)c1F
 : -26, .
COc1cc(C)cc(CN2CCN(S(=O)(=O)/C=C/c3ccccc3)CC2)c1O
 : -7, .
CCOc1ccc(/C=C2/SC(=Nc3ccccc3Cl)NC2=O)cc1
 : ., -2.6
Cc1cc(C)c(C#N)c(Cl)n1
 : 10, .
Cc1cc2ccccc2n1CC(=O)N(C)CCc1cn[nH]c1
 : -3, 2.4
CCOC(=O)c1cc(C#N)c(=S)[nH]c1-c1ccccc1
 : ., 6.0
NC(=O)c1ccccc1OC1CCC1
 : ., -6.5
O=S(=O)(c1ccc(Cl)nc1)N1CCCCC1
 : -18, -2.0
CSC(=NC#N)N1CCN(c2ccc(C(F)(F)F)cc2[N+](=O)[O-])CC1
 : ., -3.5
CCN(Cc1cc2ccccc2[nH]c1=O)C(=O)c1cccnc1
 : -2, -0.9
CCN(C(=O)C1CCN(c2nc(-c3ccc(OC)cc3)no2)CC1)c1ccccc1
 : -7, .
O=c1cc(-c2ccccc2)nc2scc(-c3ccccc3)n12
 : ., 0.4
CC(C)(C)c1ccc(Cn2c(=O)n(Cc3ccc4c(c3)OCO4)c(=O)c3ccccc32)cc1
 : 9, -0.2
CC(=O)Nc1ccc(OCC(O)CN2CCc3ccccc3C2)cc1 (stereo not drawn)
 : -15, .
CCN1CCCC1CNC(=O)Cn1ncc2c3ccccc3n(Cc3ccccc3C)c2c1=O (stereo not drawn)
 : -17, .
CC(=O)Nc1ccc(C(=O)OCc2cccc(F)c2)cc1
 : 14, 5.2
C=CCOc1ccc(/C=C2\C(=O)N(c3ccc(S(N)(=O)=O)cc3)N=C2C(F)(F)F)cc1OC
 : 9, 3.1
CCN(CC)c1ccc(/C=N/N=C(\N)c2nonc2N)cc1
 : -41, .
N#CC1=C(N)OC2=C(C(=O)OC2)C1c1c(Cl)cccc1Cl (stereo not drawn)
 : -4, 0.0
CCOc1ccccc1NC(=O)CC#N
 : 21, -0.9
Nc1ccccc1OCCOCCOc1ccccc1N
 : 26, .
Cc1ccc(C)c(C(=O)NCCc2ccccn2)c1
 : 4, .
Cc1oc(-n2cccc2)c(C#N)c1C
 : 12, .
CC(Oc1ccccc1F)C(=O)NCCN1CCCCC1 (stereo not drawn)
 : 8, 1.6
O=C(CCC(=O)N1CCCC1)Nc1ccc(F)cc1
 : ., -2.0
O=C(NC1CCCCC1)C(c1cccs1)N(Cc1cccs1)C(=O)c1cccs1 (stereo not drawn)
 : -11, 2.4
O=C(O)CSc1ncccc1[N+](=O)[O-]
 : ., -0.6
CCOC(=O)c1csc(NC(=O)c2sc3ccccc3c2Cl)n1
 : -9, .
O=C(O)C1CCCN1C(=O)C12CC3CC(CC(C3)C1)C2 (stereo not drawn)
 : 1, -0.2
CCOC(=O)c1nn(-c2ccc(C)cc2)c(=N)s1
 : 6, 2.1
COc1cc2oc(=O)cc(C)c2cc1OC
 : ., -1.6
CC(C)(C)NC(=S)Nc1cccc(C(F)(F)F)c1
 : 3, .
O=C(c1nn2c(C(F)(F)F)cc(-c3cccs3)nc2c1Cl)N1CCCc2ccccc21
 : 0, -1.8
CCN(CC)C(=S)NC1CCCCC1
 : -18, -0.1
O=C1OC2(CCCC2)OC(=O)C1=CNc1ccccc1
 : 0, 2.4
COC(=O)c1c(NC(=O)COc2ncnc3c2cnn3-c2ccccc2)sc2c1CCC2
 : 4, .

(cont.)
Values run as follows: Sa helicase inh, MgrA-DNA mod
CCCNCC(=O)Nc1ccc2c(c1)OCO2
 : 0, .
COC(=O)[C@@H](N)CSC/C=C(\C)CC/C=C(\C)CCC=C(C)C
 : ., -1.8
CS(=O)(=O)c1ccc(NC(=O)CSCc2ccc(F)cc2)cc1
 : -6, .
COC(=O)C1C(=O)C2=C(CC1C)Nc1ccccc1NC2c1c[nH]c2ccccc12 (stereo not drawn)
 : -33, .
CN(C)CCCN1C(=O)CSC1c1ccccc1 (stereo not drawn)
 : -9, .
O=S(=O)(CC(O)CS(=O)(=O)c1ccc(Cl)cc1)c1ccccc1 (stereo not drawn)
 : 2, .
CN1CCN(CCC=C2c3ccccc3Sc3ccc(S(=O)(=O)N(C)C)cc32)CC1
 : ., 1.5
OCCNCCSc1nc2ccccc2s1
 : 0, .
CCN(C(=O)C1CCCCC1)c1ccccc1C
 : 4, 3.3
Cc1cccnc1NC(=O)C(C)(C)C
 : ., -1.4

Grouped by structure, the compounds so far with bromine
Values run as follows: Sa helicase inh, MgrA-DNA mod
CN(Cc1ccc(Br)cc1)S(=O)(=O)c1cccc(C#N)c1
 : -7, .
COC(=O)C(C)Nc1cccc(Br)c1 (stereo not drawn)
 : 2, 1.1

(list continues)
Values run as follows: Sa helicase inh, MgrA-DNA mod
CSc1nc(O)cc(=O)[nH]1
 : 3, -1.9
COc1ccc(Nc2nnc(SCC3CCCO3)s2)cc1 (stereo not drawn)
 : 10, .
O=C1CNC(=S)N1CCc1ccc(Cl)cc1
 : ., -1.7
CC(C)(C)C(=O)COC(=O)c1ccccc1Cl
 : 4, .
CC(=O)c1ccc(OCc2ccc([N+](=O)[O-])cc2)cc1
 : ., 0.1
Cc1ccc(N=C2N=C(N)c3ccccc32)cc1
 : 17, .
CCOC(=O)n1c(=O)oc2cc(Br)ccc21
 : 28, .
Cc1cc(OCC(=O)N(Cc2ccc(Cl)cc2)Cc2ccco2)cc(C)c1Cl
 : 17, -0.7
CCOC(=O)CSc1nc(C)c2ccc(C)cc2n1
 : 3, .
CCOc1cccc2sc(N)nc12
 : 14, .
O=S(=O)(c1cccc2cccnc12)N1CCCCC1
 : -18, .
O=C1c2ccccc2C(Nc2ccccc2)N1Cc1ccccc1 (stereo not drawn)
 : 18, -0.3
Cc1nn(CCS(=O)(=O)c2ccc(Cl)cc2)c(C)c1Br
 : ., 1.4
CCN(CC)CCCOc1c(OC)cccc1OC
 : 3, 2.4
CCn1c(CN(C)C2CCCCC2)nc2ccccc21
 : 17, 6.2
O=C(NS(=O)(=O)c1ccc(Cl)cc1)c1ccccc1
 : 17, .
CCn1c(Cc2ccccc2)nnc1SCC(=O)c1ccc(S(C)(=O)=O)cc1
 : 9, .
CCn1cc(Br)c(C(=O)NC(C)c2ccccc2)n1 (stereo not drawn)
 : 6, 5.3
O=S(=O)(c1ccc(F)cc1)N1CCc2ccccc2C1
 : 10, 1.6
CCCC(=O)Nc1ccc(-c2nc3cc4ccccc4cc3[nH]2)cc1
 : 10, 0.8
COc1ccc(O)c(C(=O)c2cnc(/N=C(\N)Nc3cc(Cl)cc(Cl)c3)nc2)c1
 : -17, .
O=C(Oc1ccc(Cl)cc1)c1ccc2snnc2c1
 : 2, 1.0

Bioassay records as filed in PubChem.

Only part of the results is shown; the hit share may differ from the screen's.
